# From PubChem
# S aureus helic: blocks Staphylococcus aureus DNA helicase; hit rate 0.05% among 120,000; inhibition, %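 (tested at about 80 µM)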; purified S. aureus helicase, fluorescence unwinding assay; about half of the hits fall short of the stated cut;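 active = both duplicates at 50% or more, or one of them with a favoured structure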;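 also: 0% = mean of negative control wells and 100% = mean of positive control wells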
# MgrA-DNA mod: modulators of Staphylococcus aureus MgrA DNA binding; fluorescence polarization; inhibition, %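 (about 10 µg/mL by stock and volumes)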; hit rate 0.13% among 84,000;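 active = above 50% in either of two replicates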;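 also: 0% = protein plus DNA without compound and 100% = DNA alone without protein; higher means less MgrA bound to DNA so lower polarization; one replicate is shown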
# An asterisk follows results filed as active; . = not tested or not shown; & = joins results of further samples. Not all compounds are listed, so the mix of outcomes need not match the whole.
molecule	S aureus helic	MgrA-DNA mod
CCOc1cc(C=C2C(=O)NC(=O)NC2=O)ccc1OCCOc1ccc(C)c(C)c1	.	7.2
C=CCNS(=O)(=O)c1cccc2nonc12	1	1.4
S=c1cc(Nc2ccc(Br)cc2)[nH]cn1	-41	.
O=C(COC(=O)Cn1nnc(-c2ccccc2)n1)Nc1cc(F)ccc1F	-9	.
CCN1C(=O)CS/C1=N\N1CCOCC1	8	-2.5
Cc1cc(OCC(=O)O)c(C(C)C)cc1Br	7	.
O=C(O)c1ccccc1C(=O)Nc1ccc(/C=C/c2ccccc2)cc1	15	4.0
CCOC(=O)N1CCC(N2C(=O)c3ccc(C(=O)Nc4ccc(OC)c(Cl)c4)cc3C2=O)CC1	-13	.
CN1CCCc2cc(/C=C3\CC/C(=C/c4ccc5c(c4)N(C)CCC5)C3=O)ccc21	-471	18
CC(=O)Nc1nonc1-c1nc2ccccc2n1Cc1ccc(Cl)cc1Cl	4	-1.6
COc1ccc(NC(=O)c2c(Cl)nc3ccccn23)cc1	-14	-3.8
c1ccc(-c2nnc(CN3CCc4sccc4C3c3cccs3)o2)cc1 (stereo unspecified)	-14	.

# Filtered by structure, those above with a COOH group.
molecule	S aureus helic	MgrA-DNA mod
Cc1cc(OCC(=O)O)c(C(C)C)cc1Br	7	.
O=C(O)c1ccccc1C(=O)Nc1ccc(/C=C/c2ccccc2)cc1	15	4.0

# Next section.
molecule	S aureus helic	MgrA-DNA mod
Cc1ccc2c(c1)c(C)cc(=O)n2CCC(=O)O	7	14
O=C(Nc1ccccc1SCc1cccc(C(F)(F)F)c1)c1c(F)cccc1Cl	.	14
CCn1nc(C)c(CNC(=O)NCc2ccccc2)c1C	4	.
Cc1nc(-n2cccc2)sc1C(=O)NCCCc1ccccc1	26	.
COc1cc(/C=N\n2cn[nH]c2=S)cc(OC)c1OC	.	0.8
CSc1nnnn1-c1ccccc1	-16	-1.2
Cc1cccc(N(C)C(=O)Cn2ncc3c2-c2ccccc2OC3)c1	3	7.0
N#CCC1=NC(=O)/C(=C/c2ccc(F)cc2)S1	1	.
O=C(NCCc1ccccc1)c1ccc2c(c1)OCCCO2	6	.
O=c1[nH]c(SCc2ccc(Cl)cc2)nc2c1CSC2	.	-1.4
CCCN(CCC)C(=O)Cn1ccc(=N)c2ccccc21	7	1.6
O=C(Nc1nc2cc3c(cc2s1)OCO3)c1ccc2ncsc2c1	-1	.

# Next section
molecule	S aureus helic	MgrA-DNA mod
O=c1[nH]c(=O)n(CCC2=CCCCC2)c(O)c1/C=C1/C=CC=N1	4	0.8
O=C(Nc1ccc(N2CCC(n3cccc3)CC2)cc1)c1cccs1	.	8.8
C=C(C)CSc1nnc(-c2cccc(S(=O)(=O)N3CCOCC3)c2)n1-c1cccc(Cl)c1	1	.
O=C(O)c1cccc(NC(=S)NC(=O)c2cccnc2)c1	13	-0.8
N#Cc1ccccc1OCC(=O)C12CC3CC(CC(C3)C1)C2	-10	.
Cc1sc(NC(=O)c2ccco2)c(CN2CCN(c3ccccn3)CC2)c1C	-17	.
Cc1ccc(C(=O)NC(=S)NCc2ccco2)cc1	18	.
COCCNCc1c(C(=O)O)c(C)n(Cc2ccccc2C)c1C	6	.
O=C(Nc1cccc(C(F)(F)F)c1)c1cc(-c2ccccc2)n[nH]1	-5	-1.5
CC(=O)NS(=O)(=O)c1ccc(NC(=O)C2CCCN2C(=O)OC(C)(C)C)cc1 (stereo unspecified)	-7	.
C=C(C)COc1ccc2c3c(c(=O)oc2c1)CCC3	13	.
Cc1cccc(NC(=O)NCC(=O)NC2CC2)c1	14	.

# Remaining list, next part:
molecule	S aureus helic	MgrA-DNA mod
O=C(O)c1ccc(CS(=O)(=O)c2ccc(C(F)(F)F)cn2)o1	.	-5.2
O=C(Sc1ccc(C(F)(F)F)cn1)c1csc(C2COc3ccccc3O2)n1 (stereo unspecified)	.	-2.8
Cc1ccccc1OCCN1C(=O)NC2(CCC(C)CC2)C1=O (stereo unspecified)	30	.
CC(C)N(Cc1ccccc1)C(=O)c1c(F)cccc1Cl	.	0.8
O=C(NCCc1ccccc1)c1nn2cccnc2c1Cl	-6	-1.2
O=C(Nc1nccs1)c1cc2c(cc1Cl)N1CCCCCC1=NS2(=O)=O	-4	.
CC(=O)Nc1c(C(C)C)cccc1C(C)C	10	-1.4
O=C(c1ccc(CSc2ccc(Cl)cc2)o1)N1CCOCC1	.	-0.1
CCc1cc2c(=O)c(-c3ccc4c(c3)OCCO4)c(C)oc2cc1O	-6	.
CCC(CC)c1nn2c(=O)cc(CSc3ccccc3NC(=O)c3ccco3)nc2s1	4	.
O=C(O)CCCN1C(=O)c2ccccc2S1(=O)=O	7	-0.9
COc1ccc(-c2noc(N3CCN(c4ccc(OC)cc4)CC3)n2)cc1	-10	10

# Retrieved one by one from above (4):
molecule	S aureus helic	MgrA-DNA mod
CC(=O)Nc1c(C(C)C)cccc1C(C)C	10	-1.4
O=C(O)CCCN1C(=O)c2ccccc2S1(=O)=O	7	-0.9
O=C(O)c1ccc(CS(=O)(=O)c2ccc(C(F)(F)F)cn2)o1	.	-5.2
O=C(c1ccc(CSc2ccc(Cl)cc2)o1)N1CCOCC1	.	-0.1

# Carrying on.
molecule	S aureus helic	MgrA-DNA mod
CCOc1ccc(S(=O)(=O)NCCC(=O)Nc2cccc(-c3nnc4n3CCCCC4)c2)cc1	-6	.
CCOC(=O)C(C#N)C1(c2ccccc2OC)CCOC(C)(C)C1 (stereo unspecified)	-10	1.4
CCS(=O)(=O)N1CCN(C(=O)c2ccc(OC)cc2)CC1	6	4.9
CN(CCO)c1cc(C(F)(F)F)nc2ccccc12	.	3.1
O=C(CSc1nc2ccccc2s1)N1CCc2ccccc2C1	-11	3.3
CCOC(=O)C1=C(C)N=c2s/c(=C\c3cc(Br)ccc3O)c(=O)n2C1c1ccc(OC)c(OC)c1 (stereo unspecified)	.	-0.5
O=C(O)c1cc(Cl)nnc1Cl	-16	-1.9
O=C(OCC(=O)N(C1CCCCC1)C1CCCCC1)c1ccncc1	17	.
COc1ccc(CNc2ncnc3c2cnn3-c2ccccc2)cc1	-16	.
O=C1C(=Cc2ccc(N3CCOCC3)o2)C(=O)c2ccccc21	-14	3.9
CCO/N=C(/C)C1=C(O)C(C(=O)OC)C(C)(C)CC1=O (stereo unspecified)	14	-2.2
O=C(N/N=C/c1ccc(N2CCOCC2)cc1)c1ccncc1	-4	.

# The listing continues:
# Order of results – S aureus helic, MgrA-DNA mod
CN(C)CCC(=O)c1ccc2c(c1)OCO2
→ 3, -1.3
CC(=O)N=Cc1c(C)c(C#N)c(=O)n(C)c1O
→ 6, 0.9
COc1ccc(Br)c(C(=O)Nn2c(-c3cccc(Cl)c3)nc3ccccc3c2=O)c1
→ ., -1.8
Cc1oc(-c2ccc(C(=O)NC3CC3)cc2)nc1CS(=O)(=O)c1ccccc1
→ 21, .
O=C(CCC(=O)c1cccs1)OCc1ccccc1
→ 8, -1.4
O=C1C(N2CCCCC2)=C(n2nnc3ccccc32)C(=O)C(N2CCCCC2)=C1n1nnc2ccccc21
→ -32, .
O=C(O)c1ccccc1OCc1ccc2ccccc2n1
→ 3, 0.7
CC(C)c1ccc(NC(=O)Cn2nnc(C(=O)NCc3ccccc3)c2N)cc1
→ -7, .
CCSc1nc2sc3c(c2c(=O)n1CC)CCc1ccccc1-3
→ 18, 2.6
CCOC(=O)c1ccc(N=c2sc(C(=O)OC)cc(=O)n2CCCN2CCOCC2)cc1
→ 3, .
CC(NC(=O)CSc1nnc(-c2ccccc2)n1C)c1ccccc1 (stereo unspecified)
→ -4, .
COc1cc(C(=O)O)c([N+](=O)[O-])c(OC)c1OC
→ ., 1.5
CCOc1ccc(S(=O)(=O)NCc2ccncc2)cc1
→ -22, .
COc1ccc(Cc2nn3c(Cc4ccccc4)nnc3s2)cc1
→ 10, 4.7
COc1cccc(N2C(=O)c3ccncc3C2=O)c1
→ 4, .

# Other structures follow:
# Order of results – S aureus helic, MgrA-DNA mod
CC(/C=C1\SC(=S)N(CCC(=O)Nc2ccc(O)c(C(=O)O)c2)C1=O)=C\c1ccccc1
→ 1, 36
CN(C)c1ccc(N2CC(=O)SC2=NC#N)cc1
→ 13, -3.5
COC(=O)c1sc2ccccc2c1S(=O)(=O)N1CCN(c2ccccc2)CC1
→ 12, .
Cc1cc(=O)n2nc(N(C)CC(=O)N3CCCCC3)sc2n1
→ 5, -0.3
Cc1ccc(C=Nc2ccc(C(N)=O)cc2)s1
→ 15, 3.4
Cc1nn(CC(=O)Nc2ccc(S(N)(=O)=O)cc2)c(=O)c2ccccc12
→ ., -0.6
c1ccc(Oc2nc(N3CCOCC3)nc(N3CCOCC3)n2)cc1
→ 2, 0.3
CC(C)=C1C2CCC1C(C(=O)N1CCN(c3ccccc3Cl)CC1)C2C(=O)O (stereo unspecified)
→ 3, 0.4
CC(C)C(c1nnnn1C1CCCC1)N(Cc1ccc(Cl)cc1)CC1CCCO1 (stereo unspecified)
→ -5, 17
CC(C)(C)/C(O)=C/c1nc2ccccc2[nH]c1=O
→ ., -0.7
Clc1ccc2sc(Sc3ccccc3)nc2c1
→ ., 0.7
COc1cc2c(cc1OC)C(c1cccs1)N(C(=O)c1cnn(-c3ccccc3)n1)CC2 (stereo unspecified)
→ -10, .
O=C1NC(=S)N/C1=C/c1cc2ccccc2nc1N1CCCCC1
→ 3, -0.8
O=C(CSCC(=O)N1CCCC1)Nc1nc(-c2ccccc2)cs1
→ 14, .
OC(CSc1ccc(F)cc1)CN1CCN(c2nc3ccc(Cl)cc3s2)CC1 (stereo unspecified)
→ ., -1.7

# Continuation:
# Order of results – S aureus helic, MgrA-DNA mod
Cc1nc2cc3ccccc3cc2c(=O)n1CCCNC1CCCCC1
→ 22, 4.1
CSc1nsc(SC)c1C(=O)NCc1ccc2c(c1)OCO2
→ ., -1.1
CCc1ccc(OC(=O)c2ccc(C)cc2)cc1
→ -5, -4.2
COC(=O)c1sc(NC(=O)c2ccccc2)c(C(=O)OC)c1C
→ 6, 14
Cc1ccc(C(C)(C)C)c(OCCN2CCCC2)c1
→ 0, -2.1
CO[C@@]1(NC(=O)CSCC#N)C(=O)N2C(C(=O)O)=C(CSc3nnnn3C)CSC21 (stereo partly specified)
→ ., 0.5
CCc1nc2oc(C(=O)c3ccccc3)c(N)c2c2c1COC(C)(C)C2
→ 5, 2.5
CC1=C(C(=O)Nc2ccc(C)cc2)C(c2ccco2)n2c(nc3ccccc32)N1 (stereo unspecified)
→ 7, -1.2
Cc1nc2ccccc2c(=O)n1NCc1cccs1
→ 10, 2.6
CC(C)NCCn1c(-c2ccc(Br)cc2)cn2c3ccccc3nc12
→ 12, -8.8
CCCN(CC(=O)Nc1ccc(F)c(F)c1F)C(=O)c1cc2ccccc2o1
→ 1, .
CC1Cc2ccccc2N1C(=O)CSc1nc2cc(Cl)ccc2o1 (stereo unspecified)
→ -13, .
CC1CN(S(=O)(=O)c2ccc(NC(=O)Cc3ccccc3F)cc2)CC(C)O1 (stereo unspecified)
→ 13, .
Cc1ccc(-c2ccc(CCC(=O)O)n2-c2cc(C)cc(C)c2)cc1
→ 8, 3.4
O=CN1CCN(CC(O)Cn2c3ccccc3c3ccccc32)CC1 (stereo unspecified)
→ 0, -0.2

# Further compounds:
# Order of results – S aureus helic, MgrA-DNA mod
CCC(/C=N/Nc1nc(C)cc(C)n1)CC
→ 7, .
Cc1cc(/C=C(\C#N)C(=O)C(C)(C)C)c(C)n1C1CCCC1
→ 16, .
O=C(O)CCCC[C@@H]1SC[C@@H]2NC(=O)N[C@@H]21
→ ., 3.5
CNC(=O)NC(=O)Cn1nc2n(c1=O)-c1ccccc1SC2
→ -5, .
CCOc1ccccc1N(C)C(=O)c1cc(S(=O)(=O)N(CC)c2ccccc2)ccc1F
→ 8, -1.5
Oc1ccc(CNc2cccc(Cl)c2)c2cccnc12
→ 10, 8.9
N#Cc1ccc(-c2cnco2)cc1
→ ., 2.8
Cc1cc(C(F)(F)F)n2nc(C)cc2n1
→ 15, 0.0
O=C1CCC(=O)N1CNc1ccccc1-n1cccc1
→ ., -1.1
O=S(=O)(c1ccccc1)N(CCOc1ccc(F)cc1)c1nccs1
→ 6, .
CCOc1ccc(NC(=O)c2cc(-c3ccc(F)cc3)[nH]c2C)cc1
→ -4, 0.2
CCOC(=O)Cc1ccccc1[N+](=O)[O-]
→ ., 0.3
O=C(CCCn1c(=O)oc2ccccc21)NC1CCCc2ccccc21 (stereo unspecified)
→ 6, .
CN(CC(=O)NCc1ccccn1)S(=O)(=O)c1ccccc1
→ 5, -1.0
CC(=O)N1CCc2cc(C(=O)C[n+]3ccccc3)ccc21
→ 8, -2.1

# Of the compounds above, these contain a nitro group on carbon:
# Order of results – S aureus helic, MgrA-DNA mod
COc1cc(C(=O)O)c([N+](=O)[O-])c(OC)c1OC
→ ., 1.5
CCOC(=O)Cc1ccccc1[N+](=O)[O-]
→ ., 0.3

# Additional compounds follow.
# Order of results – S aureus helic, MgrA-DNA mod
Cn1c(CNc2ccc(Cl)cc2)nnc1SCc1ccc(Cl)cc1
→ 11, 1.2
CC(=O)NCc1ccc(C(=O)COC(=O)c2cc(C)nc3ccccc23)o1
→ -12, .
O=C1N(c2ccc(Cl)cc2)C(c2ccc(Cl)cc2)N2CCCN12 (stereo unspecified)
→ 14, .
S=c1[nH]c2ccccc2nc1N1CCOCC1
→ 4, .
CCOC(=O)c1[nH]c(COC(=O)[C@H](C)NS(=O)(=O)c2ccc(OC)cc2)c(C(=O)OCC)c1C
→ -18, .
N#Cc1ccc(CN2C(=O)CCC2=O)cc1
→ 19, -1.5
COC(=O)c1ccc(/C=C2\SC(=S)N(c3cccc(OC)c3)C2=O)cc1
→ 13, .
O=C(O)C1Sc2[nH]c(=O)sc2C2c3cc(Br)cc(Br)c3OC(=O)C12 (stereo unspecified)
→ -13, .
COc1ccc(NC(=O)C2C(c3ccccc3)=C2c2ccccc2)cc1
→ -14, 0.8
Cn1nnnc1SCCCC(=O)c1ccc(F)cc1
→ -11, .
COc1ccc2oc(=Nc3ccc(C#N)cc3)c(C(=O)Nc3ccccc3)cc2c1
→ ., -1.5
Cc1ccc(-c2nc3n(n2)C(=O)CC(c2ccc4c(c2)OCO4)S3)cc1 (stereo unspecified)
→ 3, 1.6
O=c1nccc(C(F)(F)F)[nH]1
→ -18&-7, 0.0
